Bioassay records from PubChem BioAssay.
BasE inh: blocks the Acinetobacter baumannii siderophore enzyme BasE | AID 485350 | inhibition, % (concentration not given with the values) | purified BasE, fluorescence polarization binding displacement | 84,000 tested, 0.1% active;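 active = both replicates above 25% with normal brightness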;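 note: 0% = negative plate control signal and 100% = positive plate control signal; stock transfer was 100 nL into about 30 µL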
LANA-nucl inh: inhibitors of KSHV LANA binding to nucleosomes | FITC-LANA1-23 / chicken nucleosome fluorescence polarization; stronger effect = lower value | z-score (no concentration beside the values) | 51,000 tested, 0.3% active | AID 720717;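 active = both repeat wells score below -2 in polarization z-score versus plate sample wells, excluding overly bright wells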;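 note: 100 nL library stock added to about 30 µL; numbers are from one replicate; some results filed as inactive read as strong as hits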
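Material: Purified chicken nucleosomes with FITC-labelled LANA N-terminal peptide (1-23) | Reagent: 50 nM FITC-LANA1-23 probe | Medium: TEN-BT buffer, pH 7.5 | Times: 10–45 min incubation at room temperature | Detection: Fluorescence polarization | Replication: Duplicates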
The depositor's hits bear a star; · = not tested or not shown; & = joins results of further samples.

Values run as follows: BasE inh	LANA-nucl inh
> COC(=O)Nc1ccc(S(=O)(=O)NCC(OC)OC)cc1
 : 0.9	·
> O=S(=O)(c1ccc(Cl)cc1)N1c2ccccc2Sc2ccc(C(F)(F)F)cc21
 : -0.1	·
> CCN(CC(=O)Nc1ccc(N2CCOCC2)cc1)C(=O)c1nc2nccc(C)n2n1
 : -0.2	·
> COc1cccc(-c2cc(C#N)on2)c1OC
 : 0.7	-0.538
> COc1ccc(/C=C/C#N)cc1OC
 : 5.0	4.14
> CC(Sc1nnc(C2CCCCC2)n1N)C(=O)NC(N)=O (stereo not given)
 : -1.5	·
> CC(=O)NCc1c(I)c(NC(C)=O)c(I)c(C(=O)O)c1I
 : -1.7	0.088&-0.435
> N#Cc1cccc(NC(=O)C2SC(=NCc3ccco3)C(C(=O)N3CCCC3)=C2N)c1 (stereo not given)
 : 2.0	·
> Cc1ccc2c(c1)-c1c(cnn1CC(=O)NCCc1ccc(S(N)(=O)=O)cc1)CO2
 : -0.6	2.12
> Cc1[nH]c2ccccc2c1C(=O)CSc1nc2ccccc2o1
 : 1.6	-0.777
> Cc1cc(-c2nc(C(=O)N3CCCCC3)cs2)no1
 : 3.4	·
> Cc1cc(C)c2c(=O)[nH]c(SCC(=O)NCCc3ccccc3)nc2n1
 : 4.1	-0.448
> CCC(C)NC(=O)C1CCN(Cc2cc(OC)ccc2OC)CC1 (stereo not given)
 : 1.4	-0.713
> O=C(Cn1ncc2c([nH]c3ccccc32)c1=O)NCCc1ccsc1
 : -2.1	0.545
> CCOC(=O)C1=NN(c2ccc(C)cc2)CC1C(=O)OC (stereo not given)
 : -2.4	0.447
> COc1ccccc1N1CC(C(=O)Nc2nc(C)cs2)CC1=O (stereo not given)
 : -1.8	·
> CCOc1cc(S(=O)(=O)NCCOC)c(OCC)cc1C
 : -0.3	0.141
> Fc1ccc(CN2CCCN(Cc3ccc(F)cc3)C2c2cccs2)cc1
 : ·	-0.574
> Cc1cccc(NC(=O)CCNS(=O)(=O)c2ccc3[nH]c(=O)oc3c2)c1
 : -1.1	1.5
> C=CCN1C(=O)C2C(C(=O)NCc3ccccc3)C3C=CC2(O3)C1C(=O)NC1CCCC1 (stereo not given)
 : 1.4	0.624

Profiles, quoted from the list. Values in the order: BasE inh, LANA-nucl inh
COc1cccc(-c2cc(C#N)on2)c1OC as listed: 0.7, -0.538
COc1ccccc1N1CC(C(=O)Nc2nc(C)cs2)CC1=O (stereo not given) as listed: -1.8, ·
Fc1ccc(CN2CCCN(Cc3ccc(F)cc3)C2c2cccs2)cc1 as listed: ·, -0.574
Cc1[nH]c2ccccc2c1C(=O)CSc1nc2ccccc2o1 as listed: 1.6, -0.777
COC(=O)Nc1ccc(S(=O)(=O)NCC(OC)OC)cc1 as listed: 0.9, ·

(continued)
Values run as follows: BasE inh	LANA-nucl inh
> C=CCN1C(=O)NC(NC(=O)c2ccccc2)(C(F)(F)F)C1=O (stereo not given)
 : 0.8	-0.569
> CCOc1ccc(N=c2scc(-c3ccc(S(=O)(=O)N4CCCCC4)cc3)n2CCCO)cc1
 : 1.6	-0.031
> CCC(C)NC(=O)COc1cc(=O)n(C)c2ccccc12 (stereo not given)
 : -7.8	-0.422
> CCc1c(C#N)c(N)nc2sc(C(=O)OCc3ccccc3)c(N)c12
 : -3.1	1.35
> CN(Cc1ccccc1)c1nnnn1-c1ccccc1
 : -0.2	·
> CCOC(=O)c1c(-c2ccccc2)cn2c1SCC2=O
 : -2.3	·
> Nc1sc2c(c1C(=O)N1CCOCC1)CCCC2
 : 1.1	·
> O=C(NCc1ccccc1)c1cccc(OCC(=O)N2CCOCC2)c1
 : -1.4	·
> Cc1cccc(OCC(=O)NCC(C)C)c1C
 : 0.5	-0.39
> CCOc1ccc2nc(Cl)c(CN(Cc3ccco3)C(=O)c3ccco3)cc2c1
 : -0.9	-0.169
> O=C(O)CCc1ccc(Br)cc1
 : -0.7	·
> CC1CCCCC1NC(=O)CSc1nnc(-c2ccccc2Br)o1 (stereo not given)
 : 0.5	·
> CCCOc1ccc(/C=N/NC(=O)CN2CCCCC2)cc1
 : -0.3	0.283
> CCc1ccc(NC(=O)CN(c2ccccc2)S(=O)(=O)N(C)C)cc1
 : 0.1	-0.0415
> Cc1cccc(-n2ccnc2SCC(=O)N2CCN(C(=O)C3COc4ccccc4O3)CC2)c1 (stereo not given)
 : -1.2	·
> Cc1ccc2cc3c(N)[nH]nc3nc2c1
 : 3.1	1.33
> Cc1ccccc1OCCSc1nc(C(C)C)cc(=O)[nH]1
 : 0.8	-0.224
> CCNC(=S)N1CCCCC1CO (stereo not given)
 : 2.5	-0.188
> COc1ccc(-c2cn3c(C)c(C(=O)N4CCCc5ccccc54)sc3n2)cc1
 : 2.3	-0.858
> O=C(OCc1cccc(COC(=O)c2ccc(Cl)cc2)n1)c1ccc(Cl)cc1
 : 0.5	·

Remaining list, next part:
Values run as follows: BasE inh	LANA-nucl inh
> O=C1c2cccc(OCC(=O)N3CCCc4ccccc43)c2CCN1Cc1cccnc1
 : -3.0	-1.37
> O=C(Nc1cccc(C(F)(F)F)c1)c1ccc(-c2ccccc2)cc1
 : 2.8	·
> COc1ccc(CCNC(=S)NCCc2ccccc2)cc1OC
 : 1.1	·
> CN(C(=O)CCC(=O)O)C1CCCCC1
 : 1.6	-0.835
> COc1ccc2[nH]cc(NC(=O)NCCO)c(=O)c2c1
 : 0.0	-0.19
> CCOc1ccc(/C=N/OC(C)C(=O)NCc2ccc3c(c2)OCO3)cc1 (stereo not given)
 : 2.6	·
> Cc1csc(=O)n1CN1CCN(C(=O)C2COc3ccccc3O2)CC1 (stereo not given)
 : 4.2	·
> COC(=O)c1cc(OC(=O)c2ccccc2Br)n(C)n1
 : 9.0	-0.962
> Cc1c2c(n3c(nc4ccccc43)c1C#N)N(CCN1CCOCC1)CC2
 : -1.8	-0.646
> CC1CC(Nc2ncnc3c2cnn3C)CC(C)(C)C1 (stereo not given)
 : -0.3	-0.593
> COc1ccc(C(=O)NCc2cc3cc(Cl)ccc3[nH]2)cc1COc1ccccc1Cl
 : 2.8	·
> O=C1CCCN1CCCNCc1ccc(-n2cnc3ccccc32)cc1
 : -1.8	·
> CCOC(=O)c1ccccc1NC(=O)/C=C1/Nc2ccccc2NC1=O
 : 4.2	-0.623
> CC(CC(=O)N1CCCCCC1)c1ccccc1 (stereo not given)
 : -0.8	0.0235
> COc1ccc(OC)c(-c2c[n+](=O)c3c(n2[O-])CCCC3)c1
 : -0.2	·
> CCOc1ccc(NC(=O)COn2nnc3ccc(S(=O)(=O)N4CCOCC4)cc32)cc1
 : 3.6	·
> CN(Cc1nc(-c2ccccc2)no1)S(=O)(=O)c1ccccc1
 : 3.2	-1.23
> Cc1ccc(S(=O)(=O)N2CCN(C(=O)c3n[nH]c(=O)c4ccccc34)CC2)cc1
 : -0.3	·
> N#CCNS(=O)(=O)c1ccccc1
 : 0.2	0.241
> O=C(Nc1ccc(F)cc1)C(=S)NC1CCCCC1
 : -1.5	·

(continued)
Values run as follows: BasE inh	LANA-nucl inh
> COc1ccc(NC(=O)COC(=O)C23CCC(=O)N2c2ccccc2S3)cc1 (stereo not given)
 : 1.4	·
> Cc1cccc(Nc2nnc(-c3ccc(C)c(S(=O)(=O)NCCO)c3)c3ccccc23)c1
 : 0.2	·
> COCCCN1CC23C=CC(O2)C(C(=O)OC)C3C1=O (stereo not given)
 : 2.3	0.151
> O=C(c1csc2c1CCCC2)N1CCN(S(=O)(=O)c2cccs2)CC1
 : 0.4	·
> O=C(O)CC12CC3CC(C1)CC(CC(=O)O)(C3)C2
 : -0.4	·
> Cc1ccc2[nH]c3c(c2c1)CCCC3C(=O)O (stereo not given)
 : 2.7	0.65
> CCOc1ccc(-c2nc3s/c(=C\C4=Cc5ccccc5OC4)c(=O)n3n2)cc1
 : -1.7	·
> NS(=O)(=O)c1ccc(CNC(=O)/C=C/c2ccccc2)cc1
 : 1.4	0.23
> COC(=O)C1C(=O)/C(=C/N(C)C)C(=O)CC1(C)C (stereo not given)
 : 0.1	-0.573
> C/C(=N\NC(=O)COc1ccccc1)C1C(=O)c2ccccc2C1=O
 : -1.9	1.22
> C=CCSc1nc(O)c(CC(C)C)c(=O)[nH]1
 : 0.0	0.905
> O=C(O)c1ccc(OCCN2CCCC2=O)cc1
 : 2.9	0.107
> CC(NC(=O)COc1ccccc1C(C)(C)C)c1ccccc1 (stereo not given)
 : -0.8	·
> CC(C(=O)Nc1ccccc1C(=O)N1CCCC1)n1nnc2ccccc21 (stereo not given)
 : 0.0	0.873
> CCOC(=O)c1[nH]c(=O)[nH]c1CSC(=N)N
 : -1.1	-0.36
> NNC(=O)C1CCCNC1=O (stereo not given)
 : 1.8	·
> Cc1nn(-c2ccc(Cl)cc2)c(N)c1C1(O)C(=O)Nc2ccc(F)cc21 (stereo not given)
 : -4.1	·
> O=c1ncn(-c2ccccc2)[nH]1
 : ·	2.35
> O=C(OCC(=O)N1N=C2/C(=C/c3ccco3)CCCC2C1c1ccco1)c1ccccn1 (stereo not given)
 : -5.4	·
> CCCC12CN3CC(C)(CN(C1)C3c1c(C)n(C)c3ccccc13)C2=O (stereo not given)
 : 1.0	-0.368

The list continues.
Values run as follows: BasE inh	LANA-nucl inh
> COc1ccccc1NC(=O)C12CC3CC(CC(C3)C1)C2
 : 1.3	·
> COc1ccc(CCNC(=O)CSc2nnc3sc4ccccc4n23)cc1
 : 1.2	-0.532
> O=c1c2c3nc4ccccc4nc3n(Cc3ccco3)c2ncn1Cc1ccco1
 : 4.2	-0.345
> CN1C(=O)c2ccccc2C(C(=O)NCCN(Cc2ccco2)C2CCCC2)C1c1cccs1 (stereo not given)
 : 1.0	-0.0685
> O=C(CNCC1CCCCC1)Nc1ccccc1N1CCCCC1
 : 1.3	0.67
> CC(=O)N(c1ccccc1)c1nc(COC(=O)c2cnc(C)cn2)cs1
 : 1.7	·
> Cc1ccc(C)c(OCc2nnc(SCN3C(=O)c4ccccc4C3=O)o2)c1
 : 1.2	·
> CC(=O)Nc1cc(NC(C)=O)c2nc(N)sc2c1
 : 1.5	·
> Cc1cccc(Nc2nnc(SCC(=O)Nc3sccc3C#N)s2)c1C
 : -0.4	·
> O=C1OC(N2CCOCC2)c2ccccc21 (stereo not given)
 : 1.1	-0.17
> O=C(O)C1CC=CCC1Cc1ccccc1 (stereo not given)
 : -0.6	0.583
> COc1ccc(/C=N/NC(=S)NC(C)C)cc1
 : -0.3	·
> O=C(COC(=O)Cn1ccc(=O)[nH]c1=O)Nc1ccc(F)cc1
 : 0.4	·
> c1cn(-c2ccc(-c3ccno3)cc2)cn1
 : ·	2.43
> O/N=C1\CCOc2ccc3ccccc3c21
 : 1.1	-0.399
> CC1=CCC2(CC1)COC(C(C)C)OC2 (stereo not given)
 : 1.4	-0.339
> Oc1c(Br)cc(Br)cc1C=NC1CC1
 : -2.1	·
> Cc1ccc2[nH]cc(NC(=O)NCCN(C)C)c(=O)c2c1
 : 0.7	-0.134
> CCN(CC)S(=O)(=O)c1ccc(N=Cc2c(O)n(-c3ccccc3)c(=O)[nH]c2=O)c(C)c1
 : -1.7	0.922
> CC1CCc2c(cnc3ncnn23)C1 (stereo not given)
 : -1.9	·

Later entries:
Values run as follows: BasE inh	LANA-nucl inh
> CCn1cc(C(=O)O)c(=O)c2cnc(N3CCN(C(=S)Nc4ccccc4)CC3)nc21
 : 1.0	-1.13
> CSc1ncccc1C(=O)OC(C)C(N)=O (stereo not given)
 : 2.5	·
> O=C(NNc1ccccc1)Nc1ccccc1F
 : 2.5	·
> CC(=O)Nc1cc(Cl)ccc1N1CCOCC1
 : 2.1	0.75
> Cc1oc(-c2ccc(Cl)cc2)nc1CS(=O)CC(=O)NC1CCCC1 (stereo not given)
 : -1.6	-0.239
> O=C(CCc1ccccc1)NN1C(=O)CCC1=O
 : 1.4	-0.167
> CC1CN(C(=O)CCC(=O)O)c2ccccc2O1 (stereo not given)
 : 1.4	0.267
> CN(Cc1cccs1)C(=O)[C@@H]1CCCN1C(=O)c1cccs1
 : 3.7	·
> N#C/C(=C\c1ccco1)C(=O)Nc1ccccc1
 : 2.6	0.198
> CC1CCc2c(nc3ncnn3c2NCCN(C)C)C1 (stereo not given)
 : -3.0	0.686
> O=C1CCCN1c1cccc2ccccc12
 : -0.6	-0.439
> CCOC(=O)/C=C1\SCC(=O)N1CC(O)CN1C(=O)CS/C1=C\C(=O)OCC
 : -0.4	·
> COC(=O)c1cccc(N=C(N)N=C(N)N)c1
 : 0.8	·
> Cc1cccc(NC(=O)Cn2cnc3sc(C)c(S(=O)(=O)N4CCC(C)CC4)c3c2=O)n1
 : -0.7	0.0355
> COc1cccc(CNC(=O)Cn2c(=O)c3cccn3c3ccc(F)cc32)c1
 : 2.3	0.335
> O=c1c2ccccc2n(Cc2cc(=O)n3ccccc3n2)c(=O)n1CCCS(=O)(=O)C1CCCCC1
 : 2.4	-0.268
> O=C(COc1ccc(F)cc1)N(CC1=CCS(=O)(=O)C1)c1ccccc1
 : -0.8	·
> C=CCOC(=O)C1=C(C)NC(SCC(N)=O)=C(C#N)C1c1ccccc1 (stereo not given)
 : 2.1	0.442
> O=C(Nc1c[nH]c(=O)[nH]c1=O)c1cccc(C(=O)Nc2c[nH]c(=O)[nH]c2=O)c1
 : -0.4	-0.709
> CC1=CC2=C(C1=O)C(C(C)C)C(C#N)=C(N)S2 (stereo not given)
 : -0.9	0.0865
> COc1ccc(C2Nn3c(nnc3C3CC3)SC2C(=O)c2ccc(F)cc2)cc1 (stereo not given)
 : -1.7	·
> NC(=O)N/N=C/c1sc(=O)n(Cc2cccc(C(=O)O)c2)c1Cl
 : 4.1	·

Part of the list above, bar-delimited:
smiles | BasE inh | LANA-nucl inh
CC(=O)Nc1cc(Cl)ccc1N1CCOCC1 | 2.1 | 0.75
Cc1oc(-c2ccc(Cl)cc2)nc1CS(=O)CC(=O)NC1CCCC1 (stereo not given) | -1.6 | -0.239
O=C(CCc1ccccc1)NN1C(=O)CCC1=O | 1.4 | -0.167

The list is partial; count on the stated rates, not on these rows.
